Six1-Eya2 blk: inhibitors of human Six1/Eya2 interaction; Q15475+O00167; AlphaScreen GST-Six1/His-Eya2 binding, biochemical; stronger effect = lower value; control for the full effect not named in the record; activity change, % (test concentration not listed); 360,000 compounds, 0.56% hits; AID 651725; in the data active = activity change below about -65%; inconclusive = about -30% to -65%; inactive = above about -30%
Target sequence (O00167 whole entry, looked up): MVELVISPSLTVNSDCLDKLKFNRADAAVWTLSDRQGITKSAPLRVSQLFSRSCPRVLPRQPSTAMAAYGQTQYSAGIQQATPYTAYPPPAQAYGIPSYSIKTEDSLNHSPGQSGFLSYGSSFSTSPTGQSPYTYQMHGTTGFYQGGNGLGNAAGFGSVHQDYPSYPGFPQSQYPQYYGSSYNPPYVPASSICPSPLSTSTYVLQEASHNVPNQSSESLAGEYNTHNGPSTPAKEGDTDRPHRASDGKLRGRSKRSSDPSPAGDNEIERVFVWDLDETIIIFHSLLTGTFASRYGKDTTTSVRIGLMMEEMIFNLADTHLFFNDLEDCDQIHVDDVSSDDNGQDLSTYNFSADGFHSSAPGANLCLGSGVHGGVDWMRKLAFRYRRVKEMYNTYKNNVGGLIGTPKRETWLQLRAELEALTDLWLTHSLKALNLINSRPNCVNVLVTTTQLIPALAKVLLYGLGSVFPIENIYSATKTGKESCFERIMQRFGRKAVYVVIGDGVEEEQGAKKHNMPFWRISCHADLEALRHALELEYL
Target sequence (Q15475 whole entry, looked up): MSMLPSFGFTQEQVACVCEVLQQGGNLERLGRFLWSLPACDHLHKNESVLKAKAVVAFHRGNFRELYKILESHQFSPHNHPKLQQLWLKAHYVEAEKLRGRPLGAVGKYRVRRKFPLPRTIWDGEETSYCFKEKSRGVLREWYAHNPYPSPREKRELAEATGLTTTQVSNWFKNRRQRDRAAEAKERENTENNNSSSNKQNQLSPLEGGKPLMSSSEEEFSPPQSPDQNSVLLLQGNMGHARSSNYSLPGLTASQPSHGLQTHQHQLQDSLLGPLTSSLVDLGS
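Six1/Eya2 binding was read as AlphaScreen signal after compounds were pinned into GST-Six1 plus His-tagged Eya2 (5X stock 250/500 nM) in pH 8.0 Tris/NaCl/TCEP buffer, beads added, then incubated 1 h, 37 C, dark.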
CtBP-E1A inh: inhibitors of CtBP/E1A interaction | AlphaScreen GST-E1A/His-CtBP binding, 1536-well; stronger effect = lower value; control for the full effect not named in the record | activity change, % (no concentration beside the values) | 340,000 compounds, 0.49% hits | AID 651724; in the data active means activity change below about -65%; inconclusive means about -30% to -65%; inactive means above about -30%
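Homogeneous bead-based format: GST-tagged E1A captured on glutathione donor beads, His-tagged CtBP on nickel acceptor beads; compounds precede bead addition by 2 h at 37 °C.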
* = called active by the depositor; u = inconclusive. % is set by controls: 0 for no effect and ±100 for the full control effect.

SMILES | Six1-Eya2 blk | CtBP-E1A inh
O=C(NCc1ccccc1)C(c1ccccc1)n1c(-c2ccccn2)nc2ccccc21 (stereo not given) | -5 | -6
CCCCNC(=O)C1C(c2ccc(C(F)(F)F)cc2)=Nc2ccccc2N1C(=O)c1cccc(C(F)(F)F)c1 (stereo not given) | -1 | 3
CC(C)c1cc(Cn2c3ccccc3c(=O)n2C(C)Cn2cc(C3CC3)nn2)on1 (stereo not given) | 4 | 5
C#CCNC(=O)C[C@@H]1C[C@@]2(C(=O)OCC)CCCC=C2N(CCC2=CCCCC2)C1=O | -4 | -8
c1ccc(N2[C@@H]3c4ccccc4C[C@H]2c2ccccc23)cc1 | -6 | -10
CC(C)NC(=O)C1(C)CN(S(C)(=O)=O)CC(=O)N1Cc1ccc2c(c1)OCO2 (stereo not given) | 1 | 3
O=C(C(=O)N1CCN(C(=O)OCc2ccccc2)CC1)c1cccnc1 | 1 | 7
COP(=O)(OC)OC(C(=O)c1ccccc1)c1ccc(Cl)cc1 (stereo not given) | 7 | -19
Cc1cn([C@H]2C[C@H](O)[C@@H](CNCc3ccc(N4CCN(C)CC4)cc3F)O2)c(=O)[nH]c1=O | 2 | -2
Cc1ccc(S(=O)(=O)N2CC3C(=O)C[C@@H](c4ccccc4)N(S(=O)(=O)c4ccc(CCCOCCOCCNC(=O)OC(C)(C)C)cc4)C3CC2c2ccccc2)cc1 (stereo not given in full) | -5 | 4
CC(C)[C@H](NC(=O)OC(C)(C)C)c1cc(C(=O)N2CCOCC2)c(N)s1 | 3 | -1
Cc1ccc2ccc(C(Nc3ccccc3)c3ccc(F)cc3)c(O)c2n1 (stereo not given) | -11 | -19
COc1ccc([C@H]2C[C@@H](O)[C@H](n3cc(C4CC4)nn3)CN2Cc2cccs2)cc1 | -1 | -4
O=C(NCc1cccs1)C1C(=O)Nc2ccccc2C(=O)N1C1CCCC1 (stereo not given) | 10 | -23
COC(=O)[C@]12CCCCC=C1N(CCc1ccc(OC)c(OC)c1)C(=O)[C@H](CC(=O)NCCCCc1ccccc1)C2 | -27 | -15
CC(C)(C)N1C(=O)c2ccccc2NC(=O)C1C(=O)NCCOc1ccccc1 (stereo not given) | 14 | -25
CCCCN1C(=O)C(CC(=O)NCCCCc2ccccc2)CC(C(=O)N(C)C)=C1C (stereo not given) | -4 | 0
Cc1ccc(OCc2nc3ccccc3n2C(C(=O)NC(C)(C)C)c2ccccc2)cc1 (stereo not given) | -3 | 0
COC1=CC(=O)OC(c2ccccc2C(F)(F)F)C1 (stereo not given) | -3 | 8
COc1ccc(CN2C(=O)CN(S(C)(=O)=O)CC2(C)C(=O)NC(C)C)cc1OC (stereo not given) | 10 | -8

Arranged by length of the SMILES (lowest first): three of the compounds above.
SMILES | Six1-Eya2 blk | CtBP-E1A inh
O=C(NCc1ccccc1)C(c1ccccc1)n1c(-c2ccccn2)nc2ccccc21 (stereo not given) | -5 | -6
COc1ccc([C@H]2C[C@@H](O)[C@H](n3cc(C4CC4)nn3)CN2Cc2cccs2)cc1 | -1 | -4
CCCCNC(=O)C1C(c2ccc(C(F)(F)F)cc2)=Nc2ccccc2N1C(=O)c1cccc(C(F)(F)F)c1 (stereo not given) | -1 | 3

Random excerpt: 3 entries already listed
SMILES | Six1-Eya2 blk | CtBP-E1A inh
CCCCNC(=O)C1C(c2ccc(C(F)(F)F)cc2)=Nc2ccccc2N1C(=O)c1cccc(C(F)(F)F)c1 (stereo not given) | -1 | 3
Cc1ccc(OCc2nc3ccccc3n2C(C(=O)NC(C)(C)C)c2ccccc2)cc1 (stereo not given) | -3 | 0
O=C(NCc1ccccc1)C(c1ccccc1)n1c(-c2ccccn2)nc2ccccc21 (stereo not given) | -5 | -6

More structures follow:
SMILES | Six1-Eya2 blk | CtBP-E1A inh
CC1=C(C(=O)N(C)C)CC(CC(=O)NC2CCCCC2)C(=O)N1Cc1ccccc1 (stereo not given) | -1 | -5
C[C@H](CO)N1C[C@H](C)[C@H](CN(C)C(=O)CCC(F)(F)F)OCc2cnnn2CCCC1=O | -2 | 4
COc1ccc(C2=Nc3ccccc3N(C(=O)c3ccc(C)cc3)C2C(=O)NCc2ccccc2)cc1 (stereo not given) | -10 | -4
CCN(CC)C(=O)C1=C(C)N(Cc2ccc(F)cc2)C(=O)C(CC(=O)NC(c2ccccc2)c2ccccc2)C1 (stereo not given) | -8 | -3
COC(=O)[C@]12CCCCC=C1N(Cc1ccc3c(c1)OCO3)C(=O)[C@H](CC(=O)N1CCN(C(=O)c3ccco3)CC1)C2 | -8 | 2
COC(=O)[C@@]12C[C@@H](CC(=O)N3CCC(c4ccccc4)CC3)C(=O)N(Cc3ccc4c(c3)OCO4)C1=CCC(C)(C)C2 | -9 | -13
CC1CCN(C(=O)c2[nH]cnc2C(=O)Nc2ccccc2F)CC1 | -1 | -22
COC(=O)[C@@]12C[C@@H](CC(=O)N3CCOCC3)C(=O)N(Cc3ccc4c(c3)OCO4)C1=CCC(C)(C)C2 | -15 | -5
CCCc1c(-c2cccc(Br)c2)ncn1Cc1cccc(-c2ccccc2)c1 | -7 | 6
COC(=O)[C@@]12C[C@@H](CC(=O)NCCCN3CCCC3=O)C(=O)N(Cc3ccco3)C1=CCC(C)(C)C2 | -3 | -8
N#Cc1ccc(C(C(=O)NCc2ccccc2)n2c(=O)c(-c3ccco3)nc3ccccc32)cc1 (stereo not given) | 2 | 3
COc1ccc(NC(=O)C(c2ccncc2)n2c(=O)c(-c3cc4ccccc4[nH]3)nc3ccccc32)cc1 (stereo not given) | 18 | 14
COC(=O)C[C@@H]1CC[C@@H](NC(=O)C2CCC2)[C@@H](CO)O1 | 14 | 0
COc1cccc(C(=O)C(=O)N2CCN(C(=O)OCc3ccccc3)CC2)c1 | -8 | -5
CCOC1=C2CN(S(=O)(=O)c3ccc(C)cc3)C(c3ccc(C)cc3)CC2N(S(=O)(=O)c2ccc(C)cc2)C(c2ccccc2)C1 (stereo not given) | 4 | 4
CC1=C(C(=O)N(C)C)CC(CC(=O)NCCc2ccccn2)C(=O)N1Cc1ccccc1 (stereo not given) | -1 | 1
CCCc1c(-c2cccc(Cl)c2)ncn1Cc1cccc(-c2ccccc2)c1 | -18 | 6
COc1ccc(NC(=O)C(c2ccccc2)n2c(=O)c(-c3ccco3)nc3ccccc32)cc1 (stereo not given) | -8 | 5
CCCc1c(-c2ccc(Cl)cc2)ncn1Cc1cccc(-c2ccccc2)c1 | -5 | -16
O=c1c(-c2ccco2)nc2ccccc2n1C(c1ccccn1)c1nc2ccccc2[nH]1 (stereo not given) | -20 | -24

3 entries from above, ordered by their value in CtBP-E1A inh, ascending.
SMILES	CtBP-E1A inh
COC(=O)[C@@]12C[C@@H](CC(=O)N3CCOCC3)C(=O)N(Cc3ccc4c(c3)OCO4)C1=CCC(C)(C)C2	-5
N#Cc1ccc(C(C(=O)NCc2ccccc2)n2c(=O)c(-c3ccco3)nc3ccccc32)cc1 (stereo not given)	3
COc1ccc(NC(=O)C(c2ccccc2)n2c(=O)c(-c3ccco3)nc3ccccc32)cc1 (stereo not given)	5

More records follow:
SMILES | Six1-Eya2 blk | CtBP-E1A inh
O=C(N[C@@H]1CC[C@@H](CCNS(=O)(=O)c2ccc(Cl)cc2)O[C@@H]1CO)c1cccnc1 | 3 | -1
CN(C)CC(=O)N[C@@H]1CC[C@@H](CC(=O)NCCN2CCCCC2)O[C@@H]1CO | 0 | -2
O=C(NCc1ccccc1)C(c1cc2ccccc2o1)n1c(=O)c(-c2ccco2)nc2ccccc21 (stereo not given) | -5 | -8
CCOC(=O)[C@]12CCCC=C1N(CCC1=CCCCC1)C(=O)[C@H](CC(=O)N1CCCC1)C2 | -17 | 1
O=C(Nc1ccc(F)cc1)C(c1ccccc1)N1CCN(c2ccncc2)CC1 (stereo not given) | -2 | 2
C[C@@H]1Cn2cnc(C(=O)Nc3ccc(CNC(=O)OC(C)(C)C)cc3)c2C(=O)N1 | -4 | 0
COc1ccc(N2CCN(C(=O)C(=O)c3cc(OC)c(OC)c(OC)c3)CC2)cc1 | -6 | -1
Cc1ccc(S(=O)(=O)C[C@@H]2OC[C@H](C)N2S(=O)(=O)c2ccc(C)cc2)cc1 | 0 | 5
C[C@H](CO)N1C[C@H](C)[C@@H](CN(C)S(=O)(=O)c2ccc(Oc3ccccc3)nc2)OCc2cn(nn2)CCCC1=O | -3 | 2
COC(=O)C1=CN(c2ccc(OC)cc2OC)C(N)=C(C#N)C1c1ccc(OC)cc1 (stereo not given) | -15 | -1
Nc1ccn([C@@H]2O[C@H](CNCc3cc(Br)ccc3OCc3ccccc3)[C@@H](O)[C@H]2O)c(=O)n1 | -3 | -1
O=C(NC1CCCC1)C(c1ccccc1)n1c(-c2ccc3c(c2)CCO3)nc2ccccc21 (stereo not given) | -10 | 9
COC(=O)C(C(=O)OC)c1cc2c(cc1CNS(=O)(=O)c1ccc(C)cc1)OCO2 | -2 | 1
O=C(Nc1ccc(F)cc1)C(CCc1ccccc1)N1CCN(c2ccncc2)CC1 (stereo not given) | -5 | 0
CCC(C)CN1C(=O)CSCC1(C)C(=O)NC(C)C (stereo not given) | 0 | 0
COc1ccc(C2=Nc3ccccc3N(C(=O)c3cnccn3)C2C(=O)NC2CCCC2)cc1 (stereo not given) | 14 | -21
COc1ccc(CN2C(=O)CSCC2(C)C(=O)NC(C)C)cc1 (stereo not given) | 0 | 5
COc1ccc(C2=Nc3ccccc3N(C(=O)c3ccc4c(c3)OCO4)C2C(=O)Nc2c(C)cccc2C)cc1 (stereo not given) | 3 | 0
CCOC(=O)[C@]12CCCC=C1N(CCC1=CCCCC1)C(=O)[C@H](CC(=O)NCc1cccc3ccccc13)C2 | -12 | -7
O=C(C[C@H]1CC[C@H]2[C@@H](COC[C@@H](O)CN2S(=O)(=O)c2ccccc2)O1)N[C@@H]1CCN(Cc2ccccc2)C1 | 22 | 6
CCN(CC)C(=O)c1[nH]cnc1C(=O)Nc1ccccc1F | 0 | -20
CCCNC(=O)C[C@@H]1CC[C@@H]2[C@H](COC[C@H](O)CN2C(=O)c2cc(Cl)cc(Cl)c2)O1 | 9 | 5
O=C(NCc1ccccc1)c1nc(-c2c(F)cccc2F)oc1-c1ccccc1 | 6 | 0
O=C(C[C@@H]1C[C@H]2c3cc(NC(=O)C4CCC4)ccc3O[C@H]2[C@@H](CO)O1)NCc1ccc(-c2ccccc2)cc1 | -1 | 1
Cc1ccc([C@H]2C[C@H](n3cc(C4CC4)nn3)[C@@H](O)CN2CC2CCCCC2)cc1 | -4 | -29
O=C(NC1CCCC1)C1C(c2ccc(C(F)(F)F)cc2)=Nc2ccccc2N1C(=O)c1cccc(C(F)(F)F)c1 (stereo not given) | 8 | -12
O=c1c(-c2cccnc2)nc2ccccc2n1C(c1ccccn1)c1nc2ccccc2[nH]1 (stereo not given) | -29 | u
CCOC(=O)c1ccc(NC(=O)c2nc[nH]c2C(=O)N[C@@H](C)CO)cc1 | -3 | -7
Cc1nc(NC(=O)c2ccccc2)sc1-c1cc(C(=O)N2CCOCC2)nn1CCO | 3 | 2
C#CCNC(=O)C[C@@H]1C[C@@]2(C(=O)OC)CCCCC=C2N(CCc2ccc(OC)c(OC)c2)C1=O | -4 | 2
O=C(C[C@H]1CC[C@@H]2[C@H](COC[C@H](O)CN2Cc2cccc(C(F)(F)F)c2)O1)NCCc1ccccc1 | -3 | 0
CCOC(=O)C[C@@H]1OC2CCCCC2N1S(=O)(=O)c1ccc(C)cc1 (stereo not given in full) | 2 | 2
O=C(C[C@@H]1CC[C@@H]2[C@H](COC[C@H](O)CN2Cc2cccc(C(F)(F)F)c2)O1)NCc1ccc(Cl)cc1 | -9 | 8
C[C@@H]1CN([C@H](C)CO)C(=O)CCCn2cc(nn2)CO[C@H]1CN(C)S(=O)(=O)c1ccc(-c2ccccc2)cc1 | -10 | -1
COC(=O)[C@@]12C[C@@H](CC(=O)N3CCN(C(=O)c4ccco4)CC3)C(=O)N(Cc3ccc4c(c3)OCO4)C1=CCC(C)(C)C2 | -8 | -23
COc1cccc(C(C(=O)NC2CCCC2)N2CCN(c3cc(C)nc4ccccc34)CC2)c1OC (stereo not given) | -12 | 0
COc1ccc(NC(=O)C[C@H]2C(=O)N(CCc3ccccc3)C[C@@H]2Cc2ccccc2)cc1 | -5 | -2
COC(=O)/C=C1\OC(c2ccccc2)c2ccccc21 (stereo not given) | 4 | -4
O=c1c(-c2cc3ccccc3[nH]2)nc2ccccc2n1C(CCc1ccccc1)c1nc2ccccc2[nH]1 (stereo not given) | 37 | 28
COc1cccc(C(C(=O)NC2CCCC2)N2CCN(c3ncccc3C#N)CC2)c1OC (stereo not given) | -1 | 5
COc1ccc(N2CCN(C(=O)C(=O)c3cccc([N+](=O)[O-])c3)CC2)cc1 | -22 | -8
COC(=O)C[C@H]1CC[C@@H](NS(=O)(=O)c2ccccc2)[C@@H](CO)O1 | 7 | 5
Cc1cc(C)c2cc(C#N)c(NCCNC(=O)c3ccccn3)nc2c1 | 4 | 7

Reformatted field by field: two of the compounds above.
> CCN(CC)C(=O)c1[nH]cnc1C(=O)Nc1ccccc1F
  Six1-Eya2 blk: 0
  CtBP-E1A inh: -20

> CCCNC(=O)C[C@@H]1CC[C@@H]2[C@H](COC[C@H](O)CN2C(=O)c2cc(Cl)cc(Cl)c2)O1
  Six1-Eya2 blk: 9
  CtBP-E1A inh: 5

Assay outcomes: PubChem, National Center for Advancing Translational Sciences (NCATS)

These rows are one share of the data; the hit share may differ from the screen's.
